Compound activity (PubChem)
UUG fidelity – modulators of yeast start codon fidelity, primary screen, whole organism, S. cerevisiae, single point, plate reader | S. cerevisiae UUG-firefly luciferase reporter, luminescence/redox ratio | activity score, % at 18.7 µM | hit rate 0.13% among 350,000 | AID 602363, 2012;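 active means replicate mean at a twofold rise or more, about +100% in these data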;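 further: firefly luciferase made from a UUG start codon reports start codon fidelity; reporter light over untreated wells divided by growth signal over untreated wells; some hits fall short of that in this replicate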
* hit, by the source's call.

UUG fidelity | canonical_smiles
10 | C[C@@H]1CN([C@H](C)CO)C(=O)c2cc(NC(=O)Nc3ccc4c(c3)OCO4)ccc2O[C@@H]1CN(C)Cc1ccc(C(=O)O)cc1
-6 | C[C@@H]1CN([C@@H](C)CO)C(=O)Cc2cc(NC(=O)Nc3ccc(F)cc3)ccc2O[C@@H]1CN(C)Cc1ccc2c(c1)OCO2
9 | CCCNC(=O)C[C@@H]1CC[C@@H]2[C@H](COC[C@@H](O)CN2C(=O)c2cc(Cl)cc(Cl)c2)O1
-8 | COc1ccccc1S(=O)(=O)N1CC[C@@H]2[C@@H](CO)Nc3ccc(-c4cccc(C#N)c4)cc3[C@@H]21
9 | OC[C@@H]1[C@@H](c2ccc(C3=CCCC3)cc2)[C@@H]2CN(CCC(F)(F)F)CCCCN12
-4 | CO[C@@H]1CN(C)C(=O)c2ccc(NC(=O)c3ccc(F)cc3)cc2OC[C@H](C)N(C(C)=O)C[C@H]1C
-6 | CN(C)C(=O)c1cccc(-c2ccc([C@@H]3[C@@H](CO)N4CCCCN(CCC(F)(F)F)C[C@@H]34)cc2)c1
12 | C[C@@H]1CN([C@H](C)CO)C(=O)c2cccc(NS(=O)(=O)c3cn(C)cn3)c2O[C@@H]1CN(C)Cc1ccc(Oc2ccccc2)cc1
-9 | CCC(=O)N1[C@H](CN(C)C(C)=O)[C@H](c2ccc(-c3cccc(F)c3)cc2)[C@@H]1CO
13 | O=C(C[C@H]1CC[C@H]2[C@@H](COC[C@H](O)CN2C(=O)c2ccc(F)cc2)O1)N1CCOCC1
-7 | COc1ccc(S(=O)(=O)N(C)C[C@H]2Oc3ccc(NC(=O)Cc4ccccc4)cc3CC(=O)N([C@@H](C)CO)C[C@@H]2C)cc1
3 | CCCNC(=O)N1[C@H](CO)[C@H](c2ccc(C3=CCCC3)cc2)[C@@H]1CNC(=O)CC
0 | COc1ccc(CN(C)C[C@H]2Oc3ccc(NC(=O)NC(C)C)cc3CC(=O)N([C@@H](C)CO)C[C@H]2C)cc1
-2 | CCCN1[C@@H]2Cn3c(ccc(-c4ccccc4F)c3=O)[C@H]1[C@@H](C(=O)NCCOC)[C@@H]2CO
-7 | CN(C)C(=O)c1cccc(-c2ccc([C@H]3[C@H]4CN(Cc5cccnc5)CCCCN4[C@H]3CO)cc2)c1
1 | COc1ccc(S(=O)(=O)Nc2ccc3c(c2)C(=O)N([C@@H](C)CO)C[C@@H](C)[C@@H](CN(C)S(=O)(=O)c2c(C)noc2C)O3)cc1
-3 | O=C(C[C@H]1CC[C@@H]2[C@H](COC[C@@H](O)CN2Cc2cccc(-c3ccncc3)c2)O1)N1CCN(c2ccccc2)CC1
47 | CO[C@H]1CN(C)C(=O)c2cc(NC(=O)c3ccc4c(c3)OCO4)ccc2OC[C@H](C)N(CCC(F)(F)F)C[C@H]1C
-6 | COCC(=O)N1CCCCN2[C@H](C1)[C@H](c1ccc(C#Cc3ccc(OC)cc3)cc1)[C@@H]2CO
-16 | C[C@H](CO)N1C[C@H](C)[C@H](CN(C)C(=O)Nc2ccccc2)Oc2ccc(NC(=O)c3ccncc3)cc2C1=O
8 | O=C(C[C@H]1CC[C@@H]2[C@H](COC[C@@H](O)CN2S(=O)(=O)c2cccc(Cl)c2)O1)N1CCOCC1
-31 | Cc1ccccc1S(=O)(=O)N1CC[C@H]2[C@H](CO)Nc3ccc(-c4ccc(C#N)cc4)cc3[C@H]21
5 | C/C=C/c1ccc([C@@H]2[C@@H](CN(C)C(=O)CC)N(S(C)(=O)=O)[C@H]2CO)cc1
10 | COc1cccc(-c2ccc3c(c2)[C@H]2[C@H](CCN2S(=O)(=O)C2=NC(C)C=N2)[C@@H](CO)N3C)c1 (some centres not stated)
1 | O=C(Nc1cc(F)ccc1F)N1C[C@@H]2[C@H](c3ccccc31)[C@@H](CO)N2Cc1cccnc1
0 | CN1c2ccc(C#Cc3cccnc3)cc2[C@H]2[C@H](CCN2S(=O)(=O)c2cccc(F)c2)[C@@H]1CO
-10 | CCN1[C@H](C(=O)NCCOC)[C@@H](CO)[C@@H]2Cn3c(ccc(-c4ccc(C(=O)N(C)C)cc4)c3=O)[C@@H]21
-8 | OC[C@H]1[C@H](c2ccc(C#CC3(O)CCCC3)cc2)[C@@H]2CN(Cc3cccnc3)CCCCN12
16 | CC(=O)N1[C@@H]2Cn3c(ccc(C4=CCCC4)c3=O)[C@H]1[C@@H](C(=O)NC1CCC1)[C@@H]2CO
6 | O=C(C[C@@H]1CC[C@H]2[C@@H](COC[C@@H](O)CN2S(=O)(=O)c2cccc(Cl)c2)O1)N1CCOCC1
7 | CO[C@H]1CN(C)C(=O)c2cc(NC(=O)Nc3cccc(Cl)c3)ccc2OC[C@H](C)N(C)C[C@@H]1C
1 | COCC(=O)N1CCCCN2[C@H](CO)[C@@H](c3ccc(C#Cc4ccc(OC)cc4)cc3)[C@H]2C1
-12 | Cc1cccc(-c2ccc([C@@H]3[C@@H](CO)N4CCCCN(Cc5cncnc5)C[C@H]34)cc2)c1
5 | COc1cccc(-c2ccc3c(c2)[C@H]2[C@H](CCN2C(=O)C2CCOCC2)[C@@H](CO)N3)c1
0 | O=C(C[C@H]1CC[C@@H]2[C@H](COC[C@H](O)CN2C(=O)c2ccc(F)cc2)O1)Nc1nccs1
1 | CC(=O)N1CCCCN2[C@H](CO)[C@@H](c3ccc(-c4ccc(F)cc4)cc3)[C@@H]2C1
10 | C[C@H]1CN([C@@H](C)CO)C(=O)Cc2cc(NS(=O)(=O)c3cccs3)ccc2O[C@H]1CN(C)C
-14 | CC(=O)N(C)C[C@@H]1[C@@H](c2ccc(-c3ccccc3)cc2)[C@H](CO)N1C(=O)C1CC1
31 | CCC(=O)Nc1ccc2c(c1)OC[C@H](C)N(C(=O)CC1CC1)C[C@@H](C)[C@@H](OC)CN(C)C2=O
-6 | COCC#Cc1ccc([C@H]2[C@H](CO)N3CCCCN(Cc4ccncc4)C[C@@H]23)cc1
47 | CN1CCCCN2[C@@H](CO)[C@@H](c3ccc(C#Cc4ccccc4F)cc3)[C@@H]2C1
11 | C[C@H](CO)N1C[C@H](C)[C@H](CN(C)C)Oc2ccc(NC(=O)Nc3ccc(C(F)(F)F)cc3)cc2CC1=O
26 | C[C@H](NC(=O)C[C@H]1CC[C@H]2[C@@H](COC[C@H](O)CN2C(=O)Nc2ccccc2)O1)c1ccccc1
9 | COc1ccccc1NC(=O)N1C[C@H]2[C@@H](c3ccccc31)[C@@H](CO)N2C(=O)c1ccccc1
30 | CC(C)CC#Cc1ccc([C@H]2[C@H](CO)N3CCCCN(S(=O)(=O)c4ccc(F)cc4)C[C@@H]23)cc1
-1 | CCC(=O)N1CCCCN2[C@H](CO)[C@@H](c3ccc(-c4cccc(C(=O)N(C)C)c4)cc3)[C@H]2C1
-3 | COc1ccc(NC(=O)Nc2cccc3c2O[C@@H](CN(C)C)[C@@H](C)CN([C@H](C)CO)C3=O)cc1
-6 | COc1ccc(S(=O)(=O)Nc2ccc3c(c2)C(=O)N([C@@H](C)CO)C[C@@H](C)[C@@H](CN(C)CC2CCCCC2)O3)cc1
-1 | N#Cc1ccc(-c2ccc([C@@H]3[C@H]4CN(S(=O)(=O)c5ccccc5)CCCCN4[C@H]3CO)cc2)cc1
21 | C[C@@H]1CN([C@@H](C)CO)C(=O)c2cc(NC(=O)Nc3cccc4ccccc34)ccc2O[C@H]1CN(C)S(C)(=O)=O

Later entries
UUG fidelity | canonical_smiles
-10 | OC[C@H]1Nc2ccc(-c3cccc(F)c3)cc2[C@@H]2[C@H]1CCN2Cc1ccncc1
-8 | CO[C@@H]1CN(C)C(=O)c2cc(NC(=O)c3ccccc3F)ccc2OC[C@H](C)N(CC2CC2)C[C@@H]1C
14 | CN(C)C(=O)C[C@H]1CC[C@@H]2[C@@H](COc3ccc(NC(=O)C4CC4)cc3C(=O)N2C)O1
-12 | COCC(=O)N1CC[C@@H]2[C@H]1c1cc(C#Cc3ccccc3)ccc1N[C@@H]2CO
11 | CO[C@@H]1CN(C)C(=O)c2ccc(NC(=O)c3ccccc3F)cc2OC[C@H](C)N(C(=O)c2ccccc2F)C[C@H]1C
-10 | CNC[C@@H]1Oc2c(NC(=O)Nc3ccccc3)cccc2C(=O)N([C@H](C)CO)C[C@H]1C
-26 | CN1c2ccc(-c3cccc(C#N)c3)cc2[C@@H]2[C@@H](CCN2C(=O)Cc2ccccn2)[C@@H]1CO
-8 | O=C(C[C@H]1CC[C@H]2[C@@H](COC[C@@H](O)CN2C(=O)Nc2ccccc2)O1)NCCc1ccncc1
-5 | CS(=O)(=O)N1CCCCN2[C@@H](CO)[C@@H](c3ccc(-c4cccc(C#N)c4)cc3)[C@@H]2C1
1 | CO[C@@H]1CN(C)C(=O)c2cc(NC(=O)Nc3ccccc3F)ccc2OC[C@H](C)N(Cc2ccccc2C(=O)O)C[C@H]1C
-10 | COc1ccc(NC(=O)Nc2cccc3c2O[C@H](CN(C)C)[C@@H](C)CN([C@@H](C)CO)C3=O)cc1
16 | C[C@@H]1CN([C@@H](C)CO)C(=O)c2cc(NC(=O)NC3CCCCC3)ccc2O[C@H]1CN(C)S(=O)(=O)c1cn(C)cn1
-8 | C[C@H](CO)N1C[C@H](C)[C@H](CN(C)S(=O)(=O)c2ccc(Cl)cc2)Oc2c(NC(=O)Nc3ccc(F)cc3)cccc2C1=O
-8 | O=C(C1CCCCC1)N1C[C@H]2[C@@H](c3ccccc31)[C@@H](CO)N2CC1CCOCC1
-9 | CO[C@H]1CN(C)C(=O)c2cc(NC(=O)c3ccccc3)ccc2OC[C@H](C)N(C(=O)CN(C)C)C[C@H]1C
-1 | C/C=C/c1ccc([C@@H]2[C@@H](CO)N(C(=O)NCCC)[C@H]2CNC(=O)C2CCC2)cc1
-11 | CO[C@H]1CN(C)C(=O)c2cc(NS(=O)(=O)c3ccccc3)ccc2OC[C@@H](C)NC[C@@H]1C
-2 | C[C@@H]1CN([C@@H](C)CO)C(=O)c2cc(NC(=O)c3ccncc3)ccc2O[C@@H]1CN(C)C(=O)Nc1ccc(F)cc1
3 | COc1ccc(CN(C)C[C@@H]2Oc3ccc(NC(=O)Nc4c(C)noc4C)cc3CC(=O)N([C@@H](C)CO)C[C@@H]2C)cc1
12 | COc1ccccc1CNC(=O)C[C@@H]1CC[C@@H]2[C@H](COC[C@H](O)CN2C(=O)Nc2ccc(C(F)(F)F)cc2)O1
8 | CN(C)CC#Cc1ccc([C@H]2[C@H](CO)N3CCCCN(C(=O)NC4CCCC4)C[C@@H]23)cc1
9 | CC=Cc1ccc2n(c1=O)C[C@@H]1[C@@H](CO)[C@H](C(=O)NC3Cc4ccccc4C3)N(CC3CC3)[C@H]21 (mixture of isomers)
-8 | CN1c2ccc(-c3ccc(F)cc3)cc2[C@H]2[C@H](CCN2C(=O)Cc2cccnc2)[C@@H]1CO
5 | C[C@@H]1CN([C@@H](C)CO)C(=O)c2cccc(NC(=O)c3ccc(-c4nccs4)cc3)c2O[C@H]1CN(C)Cc1ccc(Oc2ccccc2)cc1
-2 | C[C@@H]1CN([C@@H](C)CO)C(=O)c2cccc(NS(=O)(=O)c3ccc(Cl)cc3)c2O[C@H]1CN(C)C(=O)NC1CCCCC1

A draw from above in order of molar mass, lowest first:
UUG fidelity | canonical_smiles
14 | CN(C)C(=O)C[C@H]1CC[C@@H]2[C@@H](COc3ccc(NC(=O)C4CC4)cc3C(=O)N2C)O1
-10 | COc1ccc(NC(=O)Nc2cccc3c2O[C@H](CN(C)C)[C@@H](C)CN([C@@H](C)CO)C3=O)cc1
-8 | CO[C@@H]1CN(C)C(=O)c2cc(NC(=O)c3ccccc3F)ccc2OC[C@H](C)N(CC2CC2)C[C@@H]1C

Part of the list above, as labelled records:
CN(C)C(=O)C[C@H]1CC[C@@H]2[C@@H](COc3ccc(NC(=O)C4CC4)cc3C(=O)N2C)O1
  UUG fidelity: 14
COCC(=O)N1CC[C@@H]2[C@H]1c1cc(C#Cc3ccccc3)ccc1N[C@@H]2CO
  UUG fidelity: -12
CO[C@@H]1CN(C)C(=O)c2ccc(NC(=O)c3ccccc3F)cc2OC[C@H](C)N(C(=O)c2ccccc2F)C[C@H]1C
  UUG fidelity: 11
CNC[C@@H]1Oc2c(NC(=O)Nc3ccccc3)cccc2C(=O)N([C@H](C)CO)C[C@H]1C
  UUG fidelity: -10

Continued.
UUG fidelity | canonical_smiles
12 | O=C(NC1CCC1)[C@H]1[C@H](CO)[C@H]2Cn3c(ccc(-c4ccccc4F)c3=O)[C@@H]1N2C(=O)CC1CC1
-15 | COCC(=O)Nc1ccc2c(c1)C(=O)N(C)C[C@@H](OC)[C@H](C)CN(Cc1cccnc1)[C@@H](C)CO2
-9 | COc1ccccc1C#Cc1ccc2c(c1)[C@H]1[C@H](CCN1S(=O)(=O)c1ccc(C)cc1)[C@H](CO)N2
4 | OC[C@@H]1[C@H](c2ccc(C#Cc3ccccc3)cc2)[C@@H]2CN(Cc3cncnc3)CCCCN12
14 | O=C(CC(F)(F)F)N1C[C@H]2[C@@H](c3ccccc31)[C@@H](CO)N2C(=O)C1CCCC1
-3 | O=C(NC[C@H]1N[C@H](CO)[C@H]1c1ccccc1)C1CC1
-18 | Cc1noc(C)c1NC(=O)N(C)C[C@H]1Oc2c(NC(=O)C3CCCCC3)cccc2C(=O)N([C@@H](C)CO)C[C@H]1C
15 | CN(C)CC#Cc1ccc([C@H]2[C@@H](CO)N3CCCCN(CC4CC4)C[C@@H]23)cc1
-2 | CO[C@@H]1CN(C)C(=O)c2ccc(NS(=O)(=O)CC(F)(F)F)cc2OC[C@H](C)N(Cc2nccs2)C[C@@H]1C
-2 | COCCN(C[C@@H]1N[C@@H](CO)[C@H]1c1ccc(-c2cccnc2)cc1)C(C)=O
10 | CO[C@H]1CN(C)C(=O)c2ccc(NC(=O)C3CCCC3)cc2OC[C@@H](C)N(C(C)=O)C[C@@H]1C
5 | C[C@H]1CN([C@@H](C)CO)C(=O)Cc2cc(N(C)C)ccc2O[C@@H]1CN(C)S(=O)(=O)c1ccc(Cl)cc1

A few values from the list:
For UUG fidelity, `COc1ccccc1C#Cc1ccc2c(c1)[C@H]1[C@H](CCN1S(=O)(=O)c1ccc(C)cc1)[C@H](CO)N2` is listed with -9
For UUG fidelity, `CO[C@@H]1CN(C)C(=O)c2ccc(NS(=O)(=O)CC(F)(F)F)cc2OC[C@H](C)N(Cc2nccs2)C[C@@H]1C` is listed with -2
For UUG fidelity, `O=C(NC1CCC1)[C@H]1[C@H](CO)[C@H]2Cn3c(ccc(-c4ccccc4F)c3=O)[C@@H]1N2C(=O)CC1CC1` is listed with 12

Some of the compounds tested; the hit share may differ from the screen's.
